Compound activity deposited in PubChem BioAssay by National Center for Advancing Translational Sciences (NCATS).
Cruzain Triton: inhibitors of Trypanosoma cruzi cruzain with detergent; P25779; purified cruzain, Z-FR-AMC fluorescence, 0.01% Triton; Potency, µM, for inactives: max response, negative = inhibition, usual class: inhibitors; 0.43% of 200,000 active; AID 1478;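 note: plate controls were neutral wells for no effect and buffer without enzyme for full effect; nearly all actives have a fitted effect of over 40% in size; top concentration of the series not given in the record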
Target sequence (P25779 123-467 limits assumed): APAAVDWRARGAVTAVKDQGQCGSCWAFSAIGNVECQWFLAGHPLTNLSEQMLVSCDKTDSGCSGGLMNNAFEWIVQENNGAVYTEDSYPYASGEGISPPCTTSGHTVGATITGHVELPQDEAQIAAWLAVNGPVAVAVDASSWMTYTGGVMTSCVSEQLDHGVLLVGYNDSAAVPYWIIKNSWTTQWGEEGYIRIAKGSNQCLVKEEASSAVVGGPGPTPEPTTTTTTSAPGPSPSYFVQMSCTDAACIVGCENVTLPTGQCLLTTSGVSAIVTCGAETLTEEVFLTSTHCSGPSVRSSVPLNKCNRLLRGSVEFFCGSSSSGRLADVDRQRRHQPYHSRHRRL
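Steps: dispense cruzain (1.5 nM final) in acetate buffer pH 5.5 with DTT and 0.01% Triton X-100; pin-transfer compounds; incubate 15 min RT; add Z-FR-AMC (2 uM final); read fluorescence every 30 s, using the 60 s intensity change.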
2A StopGo: lowers the luciferase signal of an FMDV 2A StopGo reporter; human cells with a luciferase reporter of 2A StopGo recoding; control for the full effect not named in the record; Potency, µM (series often up to 57.9 µM), for inactives: top-dose signal change, negative = less light; 1.2% of 410,000 active; AID 1159524; active = well fitted falling curve with a large enough effect; inconclusive = small, poorly fitted or top-dose-only effect; inactive = no such curve, though single readings can be large or run the other way; tested in HEK293T cells; note: % is set by controls: 0 for no effect and ±100 for the full control effect; nearly all actives have a fitted effect of over 45% in size; luciferase light after 4 h
SARS PLpro yeast: SARS-CoV PLP inhibition in yeast; S. cerevisiae expressing SARS-CoV PLpro, growth rescue; control for the full effect not named in the record; Potency, µM (series often up to 32.9 µM), for the others: top-dose activity, positive = growth rescue; 0.19% of 330,000 active; AID 485353; active means well fitted rising curve with a large enough effect; inconclusive means small, poorly fitted or top-dose-only effect; inactive means no such curve, though single readings can be large or run the other way; note: 0% is about no effect; nearly all actives have a fitted effect of over 55% in size; growth read by luminescence after 48 h
NS1 inh: blocks influenza NS1 protein function | S. cerevisiae slowed by influenza A NS1, growth recovery by OD600 | AID 2326 | 0.4% of 270,000 active | Potency, µM (highest dose often 46.1 µM), for inactives: at the top dose activity, positive = more growth; active means well fitted rising curve with a large enough effect; inconclusive means small, poorly fitted or top-dose-only effect; inactive means no such curve, though single readings can be large or run the other way; note: nearly all actives have a fitted effect of over 50% in size
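In this qHTS, NS1 from influenza A is expressed in budding yeast, where it slows growth. Cells are switched from glucose to 2% galactose medium (pH 6.0, -URA), treated with compound, and growth recovery is read at OD600.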
MARV entry inh: inhibitors of Marburg virus binding or cell entry; Marburg virus pseudotyped entry inhibition, cell reporter; control for the full effect not named in the record; about a third of the inactives were read at about 46 µM; Potency, µM (highest dose often 37.8 µM), without a hit: top-dose activity change, negative = inhibition, usual class: inhibitors; 1.8% of 300,000 active; AID 540276; active = well fitted inhibition curve with a large enough effect; inconclusive = small, poorly fitted or top-dose-only effect, or effect the other way; inactive = flat fitted curve, though single readings scatter; tested in HEK293 cells; about a fifth of its hits are not listed in these tables; note: % is set by controls: 0 for no effect and ±100 for the full control effect; luciferase read-out
RE007 growth inh: less growth of the S. pombe RE007 Vpr strain; S. pombe RE007 Vpr strain, BacTiter-Glo ATP luminescence, 24 h; control for the full effect not named in the record; Potency, µM (titrated, usually from 92.2 µM), for the others: at the highest dose activity change, negative = less growth; 0.21% of 360,000 active; AID 651644; active = well fitted falling curve with a large enough effect; inconclusive = small, poorly fitted or top-dose-only effect; inactive = no such curve, though single readings can be large or run the other way;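 note: % is set by controls: 0 for no effect and ±100 for the full control effect; nearly all actives have a fitted effect of over 50% in size; the assay follows cell death caused by Vpr and the record does not say whether a fall means rescue or toxicity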
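Fission yeast RE007 carrying one integrated HIV-1 vpr copy, seeded at OD 0.01 in PMG+AL medium with 23 nL pinned compound. Grown 24 h at 30 degrees; viability read by BacTiter-Glo luminescence after 5 min.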
Cruzain inh noDet: inhibitors of Trypanosoma cruzi cruzain without detergent | AID 1476 | purified cruzain, Z-FR-AMC fluorescence, no detergent | 2.3% of 200,000 active | Potency, µM, without a hit: max response, negative = inhibition, usual class: inhibitors | P25779;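 note: plate controls were enzyme without inhibitor for no effect and buffer without enzyme for full effect; nearly all actives have a fitted effect of over 40% in size; top concentration of the series not given in the record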
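Detergent-free condition (0.00005% Triton X-100) in acetate buffer pH 5.5 with DTT. 1.5 nM enzyme and compound were pre-mixed 15 min, then 2 uM Z-FR-AMC substrate added; reaction progress from fluorescence change between first and third reads (60 s).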
LASV entry inh: Lassa virus entry inhibition; AID 540256; 1.2% of 300,000 active; Lassa virus pseudotype entry inhibition, cell reporter; control for the full effect not named in the record; Potency, µM (series often up to 37.9 µM), for the others: top-dose activity change, negative = inhibition, hits mostly inhibitors; active means well fitted inhibition curve with a large enough effect; inconclusive means small, poorly fitted or top-dose-only effect, or effect the other way; inactive means flat fitted curve, though single readings scatter; tested in HEK293 cells; note: % is set by controls: 0 for no effect and ±100 for the full control effect; nearly all actives have a fitted effect of over 50% in size; luciferase read-out
* hit, by the source's call; u = inconclusive; x = not tested or not shown; & = joins results of further samples; [ ] = dose if it differs, or a comment. Unless noted, calls come from the whole dose curve; as a rule, active = well fitted curve in the direction sought with a large enough effect; inconclusive = small, poorly fitted or top-dose-only effect, or another doubt; inactive = no such curve, though single readings can be large; an effect the other way counts as inactive or inconclusive. Potency is the fitted concentration of half-maximal effect.

SMILES	Cruzain Triton	2A StopGo	SARS PLpro yeast	NS1 inh	MARV entry inh	RE007 growth inh	Cruzain inh noDet	LASV entry inh
CCC(c1nnc(SCC(=O)N(C)c2ccccc2)n1Cc1ccccc1)N(C)C (configuration not stated)	x	0%	x	x	-9%	-5%	x	-3%
CSc1nc(-c2ccccc2)[nH]c(=S)c1C(C)=O	-4.1%	-11%	0%	0%	0%	-12%	u	8%
CC12CCC(C/C1=N\OC(=O)c1c(F)cccc1F)C2(C)C (configuration not stated)	x	36%[activator]	0%	1%	u	-3%	x	10%[46.1 µM]
CCOC(=O)C1C(c2ccc(O)c(OCC)c2)NC(=S)NC1(O)C(F)(F)F (configuration not stated)	0.2%	18%	1%	u	4%	18%	-9%	14%
CC(C)NC(=O)CN1CCN(C(=O)CCl)CC1	x	-10%	-2%	1%	-2%[46.1 µM]	16%	x	3%
Cc1cc(C)n(CC(O)Cn2c3ccccc3c3ccccc32)n1 (configuration not stated)	-2.3%	34%[activator]	-27%	1%	-19%	3%	u	0%
CCNc1nc(NC(C)(C)C)nc(N(C#N)CC)n1	-5.7%	18%	0%	-8%	0%	7%	4%	6%
CCn1cc(C(=O)O)c(=O)c2cc(F)c(N3CCN(C(=S)NC(=O)c4ccccc4Br)CC3)cc21	x	-8%	3%	8%	16%[46.1 µM]	3%	x	x
CCCCc1nc(SCCOC)c2c(=O)n(C)c(=O)n(C)c2n1	x	u	1%	x	-7%[46.1 µM]	-4%	x	-3%
COc1ccc(CC(CC(=O)O)C(=O)Nc2ccccc2)cc1 (configuration not stated)	3.7%	7%	3%	-1%	13%	-3%	-25%	18%
CC(=O)c1cccc(NC(=O)c2cc3nc(-c4ccc(Br)cc4)cc(C(F)(F)F)n3n2)c1	1.8%	-13%	x	x	x	x	-8%	10%[46.1 µM]
C=CCSc1nc2ccsc2c(=O)n1-c1ccccc1	x	-18%	4%	-4%	-21%[46.1 µM]	-9%	x	u
O=S(=O)(c1ccc2oc3ccccc3c2c1)N1CCCC1	-5.2%	-29%	8%	9%	-25%	0%	0%	u
CC(=O)Nc1cc(C(=O)N2CCc3ccccc3C2)ccc1Sc1ccc(Cl)cc1	-5.8%	0%	-32%	15%	2%	2%	11%	19%
CCOC(=O)c1ccc(Nc2nc(=O)c3cccnc3s2)cc1	0.5%	51%[activator]	3%	-7%	2.1µM*	-6%	15%	-83%[14.3 µM]
Cc1cc2oc3c(c(=O)c2cc1C)C1(C(=O)N(C)c2ccccc21)N(CCO)C3=O (configuration not stated)	-4.5%	0%	x	x	21%[46.1 µM]	x	1%	-1%[46.1 µM]
Cc1cccc(CNCCc2ccccc2)n1	-1.3%	-9%	21%	-14%	-5%	-27%	4%	0%
CC1CCCC(NC(=O)CCNC(=O)c2ccc([N+](=O)[O-])cc2)C1C (configuration not stated)	x	-16%	1%	-12%	x	12%	x	x
Cc1ccc(C)c(NC(=O)CCCN2C(=O)COc3ccc(C)cc32)c1	-4.1%	-28%	x	x	-5%[46.1 µM]	x	15%	8%[46.1 µM]
CC(Oc1ccc(-c2ccccc2)c(F)c1)c1ccn(S(=O)(=O)c2ccc(F)cc2)n1 (configuration not stated)	0.5%	u	13%	-2%	u	-7%	-17%	-19%

Just LASV entry inh, Cruzain inh noDet and 2A StopGo, for 3 of the compounds above:
SMILES	LASV entry inh	Cruzain inh noDet	2A StopGo
Cc1cccc(CNCCc2ccccc2)n1	0%	4%	-9%
CC1CCCC(NC(=O)CCNC(=O)c2ccc([N+](=O)[O-])cc2)C1C (configuration not stated)	x	x	-16%
Cc1ccc(C)c(NC(=O)CCCN2C(=O)COc3ccc(C)cc32)c1	8%[46.1 µM]	15%	-28%

New compounds follow:
SMILES	Cruzain Triton	2A StopGo	SARS PLpro yeast	NS1 inh	MARV entry inh	RE007 growth inh	Cruzain inh noDet	LASV entry inh
CC1(C)Cc2cccc(Oc3ccc(S(=O)(=O)N4CCCC4)cn3)c2O1	x	-11%	0%	x	u	-7%	x	-29%
CCOc1cc(/C=N/NC(=O)CN2CCCCC2)ccc1OCc1ccccc1	-1.7%	0%	-10%	-1%	1%[46.1 µM]	-15%	-2%	20%
Cc1cc(C)n2[nH]c(=O)c(N=Nc3cccc(Cl)c3)c2n1	-9.4%	-24%	x	-6%	-8%	3%	3%	-6%
Cc1c(C)c2ccc(O[C@@H]3O[C@H](CO)[C@H](O)[C@H](O)[C@H]3O)cc2oc1=O	x	-11%	-1%	5%	x	-10%	x	x
CN(C(=O)Oc1ccc(C(=O)c2ccc(Cl)cc2)cc1)c1ccccc1	-5.6%	u	3%	0%	u	8%	-5%	6%
N#C/C(=C\c1ccc(F)c(Br)c1)C(=O)NC1CC1	x	-28%	-1%	-4%	x	-7%	x	x
COc1ccc(N(C(=O)c2ccco2)C(C(=O)NC2CCCC2)c2ccncc2)cc1 (configuration not stated)	x	-1%	1%	0%	-12%[46.1 µM]	9%	x	-13%[46.1 µM]
O=C(OCc1nnc(-c2ccccc2)o1)c1ccc2c(c1)OCO2	-3.8%	11%	-2%	-58%	13%	u	-6%	18%
CCCCSc1nnc(-c2cc(Br)ccc2N)c(=O)[nH]1	2.1%	12%	-12%	5%	8%	13%	-6%	4%
COC(=O)c1c(C(=O)OC)c(-c2cccc(Cl)c2)n2c1CS(=O)(=O)C2	x	10%	-3%	-3%	x	-18%	x	x
OCC1OC(n2ccc3c(SCc4ccccc4)ncnc32)C(O)C1O (configuration not stated)	x	26%	x	x	22%	-13%	x	u
COc1ccc(/C=N/n2cnnc2)cc1COc1ccccn1	-0.4%	-12%	3%	0%	-14%	7%	-3%	2%
Nn1c(SCC(=O)NCC2CCCO2)nnc1-c1cc(Cl)ccc1Cl (configuration not stated)	x	-12%	3%	x	0%[46.1 µM]	25%	x	11%
O=C(NC(=S)N1CCc2ccccc21)c1ccccc1	-4.8%	23%	0%	-37%	-5%	-7%	-7%	-5%
COc1ccc(-c2cc(C(=O)N/N=C/c3sccc3C)c3ccccc3n2)c(OC)c1	-11%	-8%	-3%	-45%	5µM*	-17%	u	3.2µM*
Cc1ccccc1NC(=S)N(Cc1cccnc1)Cc1ccco1	-3.7%	-19%	21%	5%	0%	4%	-9%	3%
O=C(NCC(c1ccco1)N1CCCC1)c1ccccc1F (configuration not stated)	1.4%	8%	-2%	0%	2%	0%	2%	1%
COC(=O)c1cn(C(=O)c2cc(C)cc(C)c2)c2ccccc12	x	-21%	0%	3%	-5%[46.1 µM]	7%	x	-2%
OC(CN1CCN(c2ccccc2)CC1)c1c[nH]c2ccccc12 (configuration not stated)	3.2%	-13%	3%	0%	-1%	-13%	6%	23%
O=C(O)CN1C(=O)/C(=C2\SC(=S)N(C(Cc3ccccc3)C(=O)O)C2=O)c2ccccc21 (configuration not stated)	x	8%	0%	u	u	-7%	x	u

Compounds above containing a thiophene ring, fused or not, in the order listed:
SMILES	Cruzain Triton	2A StopGo	SARS PLpro yeast	NS1 inh	MARV entry inh	RE007 growth inh	Cruzain inh noDet	LASV entry inh
C=CCSc1nc2ccsc2c(=O)n1-c1ccccc1	x	-18%	4%	-4%	-21%[46.1 µM]	-9%	x	u
COc1ccc(-c2cc(C(=O)N/N=C/c3sccc3C)c3ccccc3n2)c(OC)c1	-11%	-8%	-3%	-45%	5µM*	-17%	u	3.2µM*

(further entries)
SMILES	Cruzain Triton	2A StopGo	SARS PLpro yeast	NS1 inh	MARV entry inh	RE007 growth inh	Cruzain inh noDet	LASV entry inh
CCNC(=O)Nc1ccc(OC)cc1OC	x	-7%	0%	2%	x	3%	x	x
CN(C)C(CNC(=O)c1cc(S(=O)(=O)N(C)Cc2ccccc2)ccc1Cl)c1ccco1 (configuration not stated)	x	u	-3%	x	-23%	-26%	x	u
COc1ccc(/C=C/c2nc(S(=O)(=O)c3ccccc3)c(N(C)C)o2)cc1OC	x	-9%	-4%	-1%	x	0%	x	x
Cc1cc(Br)ccc1NC(=S)Nc1cccc([N+](=O)[O-])c1	-3.9%	-23%	-13%	-27%	25%	-1%	-8%	-3%
CC1CC(C)CN(S(=O)(=O)c2cccc(C(=O)N3C(=O)c4cccc(N)c4C3=O)c2)C1 (configuration not stated)	-3.9%	3%	u	-5%	-5%	7%	4%	11%
Oc1ccc(N=Nc2ccc3ccccc3c2)cc1	x	-15%	-24%	-154%	x	u	x	x
CCOC(=O)/C=C/C(=O)Nc1ccccc1C(=O)NC1CCCCC1	-3.3%	u	-19%	0%	u	-10%	2%	2%
Cn1c(=O)oc2cc(S(=O)(=O)CCC(=O)NCc3ccccc3)ccc21	-1.9%	-11%	x	x	x	x	-7%	26%[46.1 µM]
COc1ccc(-c2cccc(NS(=O)(=O)c3cc(C)c(OC)c(C)c3C)c2)nn1	-6.4%	-4%	x	x	x	x	-6%	-18%[46.1 µM]
FC(F)(F)c1cccc(NC(=S)N2CCCC2)c1	x	12%	0%	1%	-13%	1%	x	10%
O=C(Cc1cccs1)NCCSc1c(-c2ccc(Cl)cc2)[nH]c2ccccc12	-5.2%	22µM*	-3%	16%	u	7%	u	16µM*
CCC/C=C(\CCC)C(NC(=O)Cc1ccccc1)c1ccc(C(=O)OC)cc1 (configuration not stated)	-4.9%&-7.2%	-24%	-28%	-89%	u	0%	-11%&-12%	6.5µM*
COc1ccc(NC(=O)Nc2nnc(N(C)C3CCCCC3)s2)c(OC)c1	-6.5%	-23%	x	x	18%[46.1 µM]	x	12%	-7%[46.1 µM]
CC(NC(=O)c1csc2ccccc12)C1CCCO1 (configuration not stated)	0.9%	49%[activator]	1%	-4%	12%	0%	-4%	u
CCOc1ccc(NS(=O)(=O)c2ccc(C(=O)NCC(c3ccco3)N(C)C)cc2)cc1 (configuration not stated)	x	7%	2%	x	-16%	5%	x	2%
Cc1c(N)cccc1-c1nc2ccccc2[nH]1	0.4%	40%[activator]	u	11%	-9%	-12%	-14%	u
Cc1ccc(SCCNC(=S)Nc2ccc(C)cc2C)cc1	-5.9%	-15%	-30%	-40%	-8%	-3%	1%	-7%
